Screens: PubChem BioAssay, National Center for Advancing Translational Sciences (NCATS)
Marburg entry inh = qHTS for inhibitors of binding or entry into cells for Marburg Virus; Marburg virus pseudotyped entry inhibition, cell reporter; control for the full effect not named in the record; about a third of the inactives were read at about 46 µM; Potency, µM (top dose mostly 37.8 µM), for the others: top-dose activity change, negative = inhibition, hits mostly inhibitors; 300,000 compounds, 1.8% hits; active = well fitted inhibition curve with a large enough effect; inconclusive = small, poorly fitted or top-dose-only effect, or effect the other way; inactive = flat fitted curve, though single readings scatter; tested in HEK293 cells; about a fifth of its hits are not listed in these tables; further: on the % scale 0 is the no-effect control and ±100 the full control effect; luciferase read-out
2A StopGo = High Throughput Screening for Foot and Mouth Disease Virus Antivirals. 410,000 compounds, 1.2% hits. AID 1159524, 2015. human cells with a luciferase reporter of 2A StopGo recoding; control for the full effect not named in the record. Potency, µM (series often up to 57.9 µM), for the others: top-dose signal change, negative = less light; active = well fitted falling curve with a large enough effect; inconclusive = small, poorly fitted or top-dose-only effect; inactive = no such curve, though single readings can be large or run the other way; tested in HEK293T cells; further: on the % scale 0 is the no-effect control and ±100 the full control effect; nearly all actives have a fitted effect of over 45% in size; luciferase light after 4 h
RE007 growth inh = qHTS Assay for Inhibitors of the HIV-1 protein Vpr; S. pombe RE007 Vpr strain, BacTiter-Glo ATP luminescence, 24 h; control for the full effect not named in the record; Potency, µM (series often up to 92.2 µM), for the others: at the highest dose activity change, negative = less growth; 360,000 compounds, 0.21% hits; active = well fitted falling curve with a large enough effect; inconclusive = small, poorly fitted or top-dose-only effect; inactive = no such curve, though single readings can be large or run the other way;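 further: on the % scale 0 is the no-effect control and ±100 the full control effect; nearly all actives have a fitted effect of over 50% in size; the assay follows cell death caused by Vpr and the record does not say whether a fall means rescue or toxicity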
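Fission yeast strain RE007, carrying one chromosomally integrated HIV-1 vpr copy, was seeded at OD 0.01 in PMG+AL medium with 23 nL pinned compound. After 24 h at 30 °C and 99% humidity, viability was read by BacTiter-Glo luminescence.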
NS1 function inh = qHTS Assay for Inhibitors of Influenza NS1 Protein Function; Potency, µM (doses to about 46.1 µM), for the others: at the highest dose activity, positive = more growth; S. cerevisiae slowed by influenza A NS1, growth recovery by OD600; 270,000 compounds, 0.4% hits; active means well fitted rising curve with a large enough effect; inconclusive means small, poorly fitted or top-dose-only effect; inactive means no such curve, though single readings can be large or run the other way; further: nearly all actives have a fitted effect of over 50% in size
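Growth recovery, yeast-based: influenza A NS1 expressed in S. cerevisiae causes slow growth, and suppressors are detected by OD600. The parent strain without NS1 is used as positive control.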
Cruzain Triton = qHTS Assay for Promiscuous and Specific Inhibitors of Cruzain (with detergent). purified cruzain, Z-FR-AMC fluorescence, 0.01% Triton. Potency, µM, without a hit: max response, negative = inhibition, hits mostly inhibitors. 200,000 compounds, 0.43% hits. AID 1478, 2009;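 further: plate controls were neutral wells for no effect and buffer without enzyme for full effect; nearly all actives have a fitted effect of over 40% in size; top concentration of the series not given in the record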
Target sequence (P25779 123-467 limits assumed): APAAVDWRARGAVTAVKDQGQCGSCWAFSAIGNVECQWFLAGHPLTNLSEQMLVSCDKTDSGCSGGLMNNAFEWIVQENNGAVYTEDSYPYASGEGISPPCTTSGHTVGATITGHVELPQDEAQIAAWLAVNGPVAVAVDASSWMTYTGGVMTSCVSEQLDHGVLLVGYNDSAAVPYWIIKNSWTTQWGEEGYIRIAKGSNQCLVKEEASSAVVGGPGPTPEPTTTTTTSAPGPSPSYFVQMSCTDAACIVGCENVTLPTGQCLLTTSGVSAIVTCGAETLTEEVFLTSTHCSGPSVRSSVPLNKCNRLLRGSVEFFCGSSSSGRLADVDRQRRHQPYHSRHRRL
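Cruzain (1.5 nM) preincubated 15 min at RT with compound in 100 mM sodium acetate pH 5.5, 5 mM DTT, 0.01% Triton X-100. Reaction started with 2 uM Z-FR-AMC; AMC fluorescence (ex 360/em 450 nm) change over 60 s gave rate.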
LASV entry inh = qHTS for Inhibitors of binding or entry into cells for Lassa Virus; 300,000 compounds, 1.2% hits; AID 540256, 2011; Lassa virus pseudotype entry inhibition, cell reporter; control for the full effect not named in the record; Potency, µM (titrated, usually from 37.9 µM), without a hit: top-dose activity change, negative = inhibition, hits mostly inhibitors; active means well fitted inhibition curve with a large enough effect; inconclusive means small, poorly fitted or top-dose-only effect, or effect the other way; inactive means flat fitted curve, though single readings scatter; tested in HEK293 cells; further: on the % scale 0 is the no-effect control and ±100 the full control effect; nearly all actives have a fitted effect of over 50% in size; luciferase read-out
Cruzain noTriton = qHTS Assay for Promiscuous and Specific Inhibitors of Cruzain (without detergent); purified cruzain, Z-FR-AMC fluorescence, no detergent; Potency, µM, for inactives: max response, negative = inhibition, most hits filed as inhibitors; 200,000 compounds, 2.3% hits;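 further: plate controls were enzyme without inhibitor for no effect and buffer without enzyme for full effect; nearly all actives have a fitted effect of over 40% in size; top concentration of the series not given in the record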
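Detergent-free condition (0.00005% Triton X-100) in acetate buffer pH 5.5 with DTT. 1.5 nM enzyme and compound were pre-mixed 15 min, then 2 uM Z-FR-AMC substrate added; reaction progress from fluorescence change between first and third reads (60 s).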
SARS PLpro yeast = qHTS of Yeast-based Assay for SARS-CoV PLP. 330,000 compounds, 0.19% hits. AID 485353, 2010. S. cerevisiae expressing SARS-CoV PLpro, growth rescue; control for the full effect not named in the record. Potency, µM (titrated, usually from 32.9 µM), for the others: at the highest dose activity, positive = growth rescue; active means well fitted rising curve with a large enough effect; inconclusive means small, poorly fitted or top-dose-only effect; inactive means no such curve, though single readings can be large or run the other way; further: 0% is about no effect; nearly all actives have a fitted effect of over 55% in size; growth read by luminescence after 48 h
Active calls of the source: *; ? = inconclusive; · = not tested or not shown; & = joins results of further samples; [ ] = another dose, or the depositor's remark. Unless noted, the call rests on the fitted dose curve; in most records, active means well fitted curve in the direction sought with a large enough effect; inconclusive means small, poorly fitted or top-dose-only effect, or another doubt; inactive means no such curve, though single readings can be large; an effect the other way counts as inactive or inconclusive. Potency means the concentration at half of the fitted maximal effect. Not a hit list; 4.8% or so of the library scored in one or more.

SMILES	Marburg entry inh	2A StopGo	RE007 growth inh	NS1 function inh	Cruzain Triton	LASV entry inh	Cruzain noTriton	SARS PLpro yeast
CC1=C(C(=O)Nc2ccccc2)C2(CCCCC2)C(C(N)=O)C(=S)N1 (stereo not given)	-7%	-4%	-17%	11%	-8.3%	1%	1%	30%
NC(=O)CCCc1nc(-c2ccccc2)no1	2%[46.1 µM]	10%	-2%	3%	·	-18%	·	0%
C=CCN(CC=C)Cc1c(C)[nH]c2ccc(C(=O)OCC)cc2c1=O	9%	·	-12%	-5%	-7.4%	0%	-1%	4%
CC(C)c1nc2ccccc2n1CC(O)COC1CCCCC1 (stereo not given)	10%[46.1 µM]	-12%	9%	·	·	14%	·	2%
O=C(CCC(=O)N1CCN(Cc2ccc(F)cc2)CC1)Nc1nnc(C2CCCCC2)s1	·	-4%	10%	11%	·	·	·	-1%
CCC(=O)N(CCC(c1ccc(C)cc1)c1ccco1)Cc1ccco1 (stereo not given)	?	-4%	-1%	7%	·	?	·	0%
CC1CCC(NC(=O)C2CCC(CNS(=O)(=O)c3ccccc3)CC2)CC1 (stereo not given)	·	22%	1%	3%	·	·	·	-1%
O=Cc1ccc(N2CCCCCC2)cc1	6%[46.1 µM]	17%	-15%	-57%	-9.6%	-6%	4%	-12%
Cc1ccc2cc(CN(Cc3ccco3)C(=O)c3ccccc3)c(=O)[nH]c2c1C	-7%	-21%	10%	-33%	2.8%	3%	-13%	-1%
O=C(CC1CCCCC1)NCc1cn2ccsc2n1	7%	-18%	26%	1%	-3.6%	10%	2%	3%
COc1ccc(-c2csc3ncnc(NCCO)c23)cc1	·	?	-8%	6%	·	·	·	2%
Cc1cc2c(cc1S(=O)(=O)N1CCN(c3ccccc3)CC1)OCCN2C	·	32%[activator]	-8%	5%	·	·	·	-1%
CCOC(=O)CNS(=O)(=O)CCN1C(=O)c2ccccc2C1=O	-6%	-8%	8%	-3%	3.6%	22%	0%	-4%
Cc1cc(/C=N/n2cnnc2)c(C)n1-c1ccc(OCc2ccc(Cl)cc2Cl)cc1	8.9µM*	-46%	-17%	-86%	2.4%	7.1µM*	-19%	-36%
O=C(NNS(=O)(=O)c1ccc(Cl)cc1)c1ccc(S(=O)(=O)N2CCCCC2)cc1	?	-8%	0%	12%	-2.1%	-4%	0%	-12%
O=C(COC(=O)c1ccccn1)NCc1cccs1	20%[46.1 µM]	-21%	-5%	·	·	29%	·	-1%
Cc1ccc(S(=O)(=O)N(CC(=O)Nc2ccccc2C(=O)O)c2ccccc2C)cc1	-17%[46.1 µM]	-10%	-7%	11%	·	1%[46.1 µM]	·	0%
O=C(Nc1ccc(-n2nncc2-c2ccco2)cc1)c1ccc(F)cc1	-7%	?	1%	-29%	-4.6%	?	4%	-1%
COC(=O)c1cc(OC)c(OC)cc1NC(=O)c1ccc(OC)c(OC)c1	-23%[46.1 µM]	-12%	-5%	-10%	1.0%	-4%	?	4%
Cc1ccccc1NC(=O)CSc1ccsc1[N+](=O)[O-]	11%	-20%	0%	6%	-14%	-4%	-4%	-7%
Cc1cc(C)n(-c2ncnc3ccccc23)n1	15%[46.1 µM]	16%	4%	·	·	-1%[46.1 µM]	·	-1%
O=C(NC1CC(=O)N(c2cccc(F)c2)C1)c1ccc(S(=O)(=O)N2CCCCC2)cc1 (stereo not given)	·	-9%	·	·	-1.5%	-2%[46.1 µM]	-12%	·
CCOC(=O)c1[nH]c(COC(=O)C2CC(=O)N(Cc3ccccc3)C2)c(C(=O)OCC)c1C (stereo not given)	9%&-1%	3%	0%	-67%	-8.3%	-16%	?	-2%
CCCn1c(COc2ccc(C(=O)O)cc2)nc2ccccc21	·	-17%	2%	4%	·	·	·	1%
Cn1c(=O)cc(OCC(=O)NCc2ccccn2)c2ccccc21	5%	0%	-8%[3.69 µM]	2%	1.4%	3%	-15%	3%

Brought forward from above: 2 entries; new compounds follow.
SMILES	Marburg entry inh	2A StopGo	RE007 growth inh	NS1 function inh	Cruzain Triton	LASV entry inh	Cruzain noTriton	SARS PLpro yeast
CCCn1c(COc2ccc(C(=O)O)cc2)nc2ccccc21	·	-17%	2%	4%	·	·	·	1%
Cn1c(=O)cc(OCC(=O)NCc2ccccn2)c2ccccc21	5%	0%	-8%[3.69 µM]	2%	1.4%	3%	-15%	3%
COC(=O)c1ccc(NC(=S)NCCC2=CCCCC2)cc1	5%	·	3%	22%	-12%	10%	9%	4%
Cc1noc(C)c1COc1ccc(C(=O)OCC(=O)N2CC(=O)Nc3ccccc32)cc1	0%	?	12%	-23%	4.0%	1%	-2%	-19%
Cc1c(CN2CCCC(CO)(Cc3cccc(Cl)c3)C2)cnn1C (stereo not given)	?	1%	3%	6%	·	2%[46.1 µM]	·	0%
COc1ccc(OCC(=O)N/N=C/c2ccc(O[C@@H]3O[C@H](CO)[C@@H](O)[C@H](O)[C@H]3O)cc2)cc1	?	-11%	1%	-1%	1.0%	?	-16%	-1%
Cc1ccc(/C=C2\CC(C)CC3=C2NC(=S)NC3c2ccc(C)cc2)cc1 (stereo not given)	?	-6%	1%	1%	·	0%	·	7%
NC(=O)c1ccc(OCC(F)(F)C(F)(F)C(F)(F)C(F)(F)C(F)(F)C(F)F)cc1	22%	·	0%	-5%	-6.5%	-1%	-8%	-16%
COc1ccc2nc(NC(=O)CSc3nc(C)cc(C)n3)sc2c1	?	?	1%	-50%	1.4%	?	-9%	-4%
CC1CCCC(NC(=O)c2cn(C)c3ccc(S(=O)(=O)N4CCCC4)cc3c2=O)C1C (stereo not given)	·	·	·	-1%	-0.6%	·	?	-1%
CCN1c2ccccc2S(=O)(=O)c2ccccc21	14%[46.1 µM]	-19%	-1%	0%	·	-30%[46.1 µM]	·	1%
O=C(CN1CCCC1)Nc1sc2c(c1C(=O)Nc1ccc(Br)cc1)CCC2	-5%	0%	8%	6%	·	13%	·	2%
CCCNC(=O)CN1C(=O)NC2(CCCc3cc(OC)ccc32)C1=O (stereo not given)	13%	-10%	-3%	1%	-0.2%	-2%	1%	6%
COc1ccc(-n2nc3c(=O)[nH][nH]c3cc2=O)cc1	-3%[46.1 µM]	-20%	0%	·	·	0%[46.1 µM]	·	-1%
COc1ccc(NC(=O)NN2CCN(C)CC2)cc1OC	·	-17%	14%	4%	·	·	·	-3%
O=C(CNS(=O)(=O)c1ccccc1)OCC(=O)c1ccc(Br)cc1	4%[46.1 µM]	-10%	0%	10%	·	13%[46.1 µM]	·	-2%
Cc1ccccc1-c1nc(CN2CCCC(C(=O)NCc3cccnc3)C2)c(C)o1 (stereo not given)	?	-25%	-3%[3.69 µM]	-5%	6.0%	-5%	2%	-2%
Clc1ccc(C2=NN(c3ccccc3)C(c3ccco3)C2)cc1 (stereo not given)	?	6%	11%	-6%	·	4%[46.1 µM]	·	-1%
Cc1cccc(N2CCN(S(=O)(=O)c3ccc4[nH]c(=O)ccc4c3)CC2)c1C	·	?	-2%	-5%	·	·	·	-5%
CSc1ncnc2[nH]ncc12	4%[46.1 µM]	2%	1%	·	·	19%[46.1 µM]	·	·
CCS(=O)(=O)c1ccc2oc(SCC(=O)c3ccco3)nc2c1	11%	2%	-18%	10%	-3.3%	7%	-2%	6%
CC(C)CC(=O)Nc1nc2ccc(S(=O)(=O)N3CCOCC3)cc2s1	?	8%	26%	-1%	-2.5%	-16%	-10%	-1%
Cc1ccc(C(=O)N/N=C\c2ccc3c(c2)OCO3)cn1	13%[46.1 µM]	45%[activator]	-19%	-3%	·	24%	·	-2%
Cc1ccccc1OCc1nc2ccccc2c(=O)n1N	5%[46.1 µM]	-9%	1%	-8%	0.7%	27%	6%	-11%
CCC(=O)N1CCc2cc(OC)c(OC)cc2C1COc1ccccc1OC (stereo not given)	-13%&-13%[46.1 µM]	-2%&-19%	0%	·	-1.1%	-7%	-13%	0%
O=C(CNS(=O)(=O)c1ccccc1)OCC(=O)c1ccc(OC(=O)c2ccccc2)cc1	14%	55%[activator]	14%	-1%	-14%	18%	?	0%
COc1ccc(Cn2cnc3c([N+](=O)[O-])c(C)c(C)cc32)cc1	?	-18%	10%	0%	0.4%	-26%	1%	5%
Cc1ccc(C(=O)N2CCC(C(=O)NC3CCCC3)CC2)cc1	2%[46.1 µM]	-10%	4%	2%	·	8%[46.1 µM]	·	-3%
COC(=O)c1scc(-c2ccc(C)cc2)c1S(=O)(=O)N1CCN(c2ccc(F)cc2)CC1	·	17%	·	·	-5.5%	?	-30%	·
CN1C(=O)C(Cc2ccc(OCc3ccccc3)cc2)C(=O)N(C)C1=O	·	17%	-6%	-35%	·	·	·	1%
COc1ccc(CN2C(=O)c3cccnc3C2=O)cc1S(=O)(=O)N1CCOc2ccc(C)cc21	·	10%	2%	9%	·	·	·	-1%
COc1cc(Cl)c(C)cc1NC(=O)Cn1ncc2c(=O)oc3ccccc3c21	1%[46.1 µM]	-22%	·	·	-1.0%	18%[46.1 µM]	0%	·

Complete entries, quoted from the list. Screens in order: Marburg entry inh, 2A StopGo, RE007 growth inh, NS1 function inh, Cruzain Triton, LASV entry inh, Cruzain noTriton, SARS PLpro yeast
Entry for COC(=O)c1cc(OC)c(OC)cc1NC(=O)c1ccc(OC)c(OC)c1 → -23%[46.1 µM], -12%, -5%, -10%, 1.0%, -4%, ?, 4%
Entry for CCOC(=O)c1[nH]c(COC(=O)C2CC(=O)N(Cc3ccccc3)C2)c(C(=O)OCC)c1C (stereo not given) → 9%&-1%, 3%, 0%, -67%, -8.3%, -16%, ?, -2%
Entry for Clc1ccc(C2=NN(c3ccccc3)C(c3ccco3)C2)cc1 (stereo not given) → ?, 6%, 11%, -6%, ·, 4%[46.1 µM], ·, -1%
Entry for Cc1ccc2cc(CN(Cc3ccco3)C(=O)c3ccccc3)c(=O)[nH]c2c1C → -7%, -21%, 10%, -33%, 2.8%, 3%, -13%, -1%
